High-throughput results as filed in PubChem.
Ba CapD inh = CapD enzyme inhibition | purified CapD enzyme, fluorescence intensity read-out; hits give low values; some hits fall short of the stated cut | z-score (no concentration beside the values) | 140,000 tested, 0.23% active;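 active means z-score under -4 in either of two replicates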;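 further: stock transfer was 100 nL into about 40 µL; score is relative to mean and spread of the plate; one replicate is shown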
AID504770 = E. coli YBA685 growth inhibition, screen for V. cholerae RctB inhibitors. E. coli YBA685 rctB-dependent plasmid, OD600 growth, 3 h; hits give low values. z-score (concentration not given with the values). 130,000 tested, 0.27% active. AID 504770;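 active means z-score under -2 on both plates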;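 further: wells of about 30 µL received 100 nL stock; score is relative to mean and SD of the test wells; the first replicate is given; strong numbers were not always called active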
* marks the source's active call; other numbers are inactive results.

`CCN(CC)S(=O)(=O)N1CCC(C(=O)NCc2ccccc2Cl)CC1` gave Ba CapD inh 0.72 and AID504770 -0.35.
For COc1ccccc1NC(=O)Cn1c(=O)n(Cc2ccc(F)cc2)c(=O)c2cccnc21 the results were Ba CapD inh 0.24 and AID504770 -0.05.
COc1ccc(C(=O)Nn2c(SCc3ccc([N+](=O)[O-])cc3)nc3ccccc3c2=O)cc1 was read as Ba CapD inh -0.94.
Screening O=[N+]([O-])c1ccc(Nc2nc(N3CCOCC3)nc(N3CCOCC3)n2)cc1 returned Ba CapD inh -0.28.
Screening CCCCP(=O)(O)c1ccccc1 returned Ba CapD inh 0.41 and AID504770 0.75.
Screening CCCCC(=O)N1c2ccc(OCC)cc2C2=C(SC(C(=O)OC)=C(C(=O)OC)C23SC(C(=O)OC)=C(C(=O)OC)S3)C1(C)C returned Ba CapD inh -0.47.
Screening O=C(CC1C(=O)NC2CCCCC2N1C(=O)Nc1cccc(Cl)c1)Nc1ccc2c(c1)OCO2 (configuration not stated) returned Ba CapD inh -0.035 and AID504770 0.2.
For COc1ccc(NC(=O)CN(C)Cc2ccccc2)cc1 the results were AID504770 -0.45.
`O=C(O)/C=C/C(=O)NCc1cccc(Cl)c1` gave Ba CapD inh 0.8 and AID504770 -0.2.
CC(=O)Oc1ccc2cc(-c3nnc(-c4ccccc4)o3)c(=O)oc2c1 was read as Ba CapD inh 59.
For O=C(Cc1noc2ccccc12)N1CCCCC1c1nc2ccccc2s1 (configuration not stated) the results were AID504770 0.4.
`CCN1C(=O)C(NC(C)=O)c2ccccc21` (configuration not stated) gave Ba CapD inh -0.17 and AID504770 1.6.

The final 4 records of the section above lead into the next:
`O=C(O)/C=C/C(=O)NCc1cccc(Cl)c1` gave Ba CapD inh 0.8 and AID504770 -0.2.
CC(=O)Oc1ccc2cc(-c3nnc(-c4ccccc4)o3)c(=O)oc2c1 was read as Ba CapD inh 59.
For O=C(Cc1noc2ccccc12)N1CCCCC1c1nc2ccccc2s1 (configuration not stated) the results were AID504770 0.4.
`CCN1C(=O)C(NC(C)=O)c2ccccc21` (configuration not stated) gave Ba CapD inh -0.17 and AID504770 1.6.
For Cc1c(Cl)cccc1NC(=O)NCCSCc1ccco1 the results were Ba CapD inh -0.045.
`O=C(O)CCc1ccc(Cl)cc1Cl` gave Ba CapD inh -0.52 and AID504770 -0.95.
O=C1c2ccccc2NC(c2ccccc2)N1Cc1ccco1 (configuration not stated) was read as AID504770 -1.4.
O=C(CSc1ccc2nnc(-c3ccccc3)n2n1)NCC1CCCO1 (configuration not stated) was read as Ba CapD inh 0.92 and AID504770 -0.15.
For O=S(=O)(c1ccccc1)c1ccc(Br)cc1 the results were Ba CapD inh -0.39 and AID504770 -0.75.
For O=C1CNC(=S)N1C1CCCCC1 the results were AID504770 -0.7.
c1csc(COc2ccccc2CNC2CCCCC2)c1 was read as Ba CapD inh -0.095 and AID504770 0.2.
O=C(O)c1cc(Br)ccc1NS(=O)(=O)c1cccc2nsnc12 was read as Ba CapD inh -2.8.
CC1=C(C(=O)Nc2ccc(Cl)cc2)C(c2ccncc2)C(C#N)=C(SCC(=O)Nc2ccc(C)cc2C)N1 (configuration not stated) was read as Ba CapD inh -0.025.
`CC12CC[C@H]3[C@@H](CCC4(O)C[C@H](O)CCC34/C=N/NC(N)=O)C1(O)CCC2C1=CC(=O)OC1` (some centres not stated) gave Ba CapD inh 0.68 and AID504770 -0.7.
For CC1(C)CC(=O)C2=C(C1)c1c(ccc3ccccc13)NC2c1cc(Br)ccc1OCc1ccc(Cl)cc1Cl (configuration not stated) the results were Ba CapD inh 2.4.
`Cn1cccc1Cc1nnc(SCC(=O)N2CCCCC2)n1-c1ccc(F)cc1` gave Ba CapD inh -0.11 and AID504770 -0.4.
For COc1ccc([C@H]2[C@@H](C#N)[C@H](C#N)N3CCCN23)cc1 the results were Ba CapD inh 0.01 and AID504770 0.15.
`C#CCOC(=O)C1C2C=CC(C2)C1C(=O)O` (configuration not stated) gave Ba CapD inh -0.52 and AID504770 -0.5.
CCCC(C)C(=O)N1CCN(c2ccc(F)cc2)CC1 (configuration not stated) was read as Ba CapD inh 0.11 and AID504770 -0.75.
`N#CC1=C(N)Oc2c(c(=O)oc3ccccc23)C1c1ccccc1` (configuration not stated) gave Ba CapD inh 1.2 and AID504770 0.6.
Screening CC(C)(C)c1ccc(C(=O)N/C(=C\c2ccc([N+](=O)[O-])cc2)C(=O)Nc2cc(Cl)cc(Cl)c2)cc1 returned Ba CapD inh -0.92.
For Cc1nn(-c2ccccc2)nc1CNC(=O)CC(C)(C)C the results were Ba CapD inh 0.28 and AID504770 0.9.
For CCOC(=O)c1oc2ccccc2c1CN1CCN(C)CC1 the results were Ba CapD inh -0.43 and AID504770 -0.05.
COC(=O)c1cc(OC)c(OC)cc1NS(=O)(=O)c1ccc(OC)c(OC)c1 was read as Ba CapD inh -0.49.
`COC(=O)c1sc(NC(=O)C(F)(F)F)c(C(=O)OC)c1C` gave Ba CapD inh 0.02 and AID504770 -0.55.
For Nc1c(NCCO)c2ccccc2oc1=O the results were Ba CapD inh -0.59 and AID504770 -0.1.
`c1cc2c(cc1COCc1ccc3c(c1)CCO3)CCO2` gave Ba CapD inh -1.1 and AID504770 -0.65.
For CCCN(C(=O)Cc1noc2ccc(C)cc12)c1ccc(F)cc1 the results were Ba CapD inh -1.3 and AID504770 0.1.

Some of these compounds in order of length of the SMILES, descending.
Screening CC(C)(C)c1ccc(C(=O)N/C(=C\c2ccc([N+](=O)[O-])cc2)C(=O)Nc2cc(Cl)cc(Cl)c2)cc1 returned Ba CapD inh -0.92.
`CC12CC[C@H]3[C@@H](CCC4(O)C[C@H](O)CCC34/C=N/NC(N)=O)C1(O)CCC2C1=CC(=O)OC1` (some centres not stated) gave Ba CapD inh 0.68 and AID504770 -0.7.
`C#CCOC(=O)C1C2C=CC(C2)C1C(=O)O` (configuration not stated) gave Ba CapD inh -0.52 and AID504770 -0.5.

Not a retest: 3 of the compounds above.
For COc1ccc([C@H]2[C@@H](C#N)[C@H](C#N)N3CCCN23)cc1 the results were Ba CapD inh 0.01 and AID504770 0.15.
`C#CCOC(=O)C1C2C=CC(C2)C1C(=O)O` (configuration not stated) gave Ba CapD inh -0.52 and AID504770 -0.5.
CCCC(C)C(=O)N1CCN(c2ccc(F)cc2)CC1 (configuration not stated) was read as Ba CapD inh 0.11 and AID504770 -0.75.

Continued:
`N#CC(=C1SC2CS(=O)(=O)CC2S1)c1nc2ccccc2s1` (configuration not stated) gave AID504770 0.5.
O=C(COc1ccc(Cl)cc1)OCC(=O)N1CCCCCC1 was read as Ba CapD inh 0.47 and AID504770 -0.45.
O=C1c2cccc3cccc(c23)N1CNc1ncccn1 was read as AID504770 1.4.
Screening COc1cccc(N2CC(C(=O)Nc3c(C(N)=O)oc4ccccc34)CC2=O)c1 (configuration not stated) returned AID504770 1.4.
`COC(=O)c1ccsc1N` gave Ba CapD inh 0.12.
Cc1ccc(N=Cc2cc3ccccc3nc2Cl)c(C)c1 was read as Ba CapD inh -1 and AID504770 -0.85.
For Cc1cc(C)c(C=C(C#N)C#N)[nH]1 the results were Ba CapD inh -1.4 and AID504770 -1.1.
For O=C(CN(c1cccc(Br)c1)S(=O)(=O)c1ccccc1)N1CCOCC1 the results were AID504770 -0.2.
Screening Cc1ccc(-c2c(C(=O)NC(C)C)oc(=O)c3ccccc23)cc1 returned Ba CapD inh -0.28 and AID504770 0.4.
Screening CC1(C)C(C(=O)Nc2ccc(S(=O)(=O)c3ccc(NC(=O)C4C(C)(C)C4(C)C)cc3)cc2)C1(C)C returned Ba CapD inh -0.21 and AID504770 -0.8.
CCCCCCCCc1ccc(-c2ccc(C(=O)OCC(C)CC)cc2)cc1 (configuration not stated) was read as Ba CapD inh -0.64.
For O=C1NC(=O)C(=Cc2ccc(-c3ccccc3)o2)C(=O)N1 the results were Ba CapD inh 0.005 and AID504770 0.3.
For CC(C)(C)C(=O)N(CN1C(=O)c2ccccc2C1=O)c1cccc(F)c1 the results were AID504770 0.
COC(CNC(=O)c1cccc(N2CCCC2=O)c1)OC was read as Ba CapD inh 0.41 and AID504770 -0.05.
CC1=C(C#N)C(=O)N(C)C(C)(C)C1 was read as AID504770 -0.6.
For CCC1=C(C(=O)OC)C(c2ccc(Br)cc2)n2ncnc2N1 (configuration not stated) the results were Ba CapD inh -2.6 and AID504770 0.4.
For CSC1=NC2C(N1)N(C)C(=O)N2C (configuration not stated) the results were Ba CapD inh -0.075 and AID504770 -0.25.
`NC(=O)c1ccccc1NC(=O)COC(=O)CC1CCCC1` gave Ba CapD inh 0.38 and AID504770 -0.95.
For Cc1ccc2nc(SC3CCCC3)nc(=O)n2c1 the results were AID504770 0.45.
O=C1CCC(C(=O)O)=NN1 was read as Ba CapD inh 0 and AID504770 -1.
Screening O=c1[nH]c2ccc(N=Cc3ccc(O)cc3)cc2[nH]1 returned Ba CapD inh 1.3 and AID504770 1.5.
Screening CSc1nc(NS(=O)(=O)c2ccc(F)cc2F)nn1C returned Ba CapD inh -0.82 and AID504770 -1.1.
COc1ccc(CN(C)C(=O)c2ccc(C)cc2O)c(OC)c1 was read as AID504770 0.35.
For NC(=O)C(Cc1c[nH]c2ccccc12)NC(=O)OCC1CCN(O)CC1 (configuration not stated) the results were Ba CapD inh -1.2.
CC1=C(C)NC(=S)SC1 was read as AID504770 1.6.
Screening CCOC(=O)c1cc(C#N)c(Sc2n[nH]c(C(F)(F)F)n2)nc1C(F)(F)F returned Ba CapD inh 0.45 and AID504770 -0.25.
Screening O=C(CN1CCc2ccccc21)N1CCN(S(=O)(=O)c2ccccc2)CC1 returned AID504770 -0.2.
For CC1/C(=N/O)CC(c2ccco2)NC1c1ccco1 (configuration not stated) the results were AID504770 -1.1.
Clc1ccc(N=C2SCCS2)cc1 was read as Ba CapD inh -0.49 and AID504770 0.95.
`CCc1ccccc1NC(=O)C(CC)CC` gave Ba CapD inh 0.2 and AID504770 1.5.
For Cc1cccc(S(=O)(=O)NCc2cn3cccc(C)c3n2)c1 the results were AID504770 -0.6.
CCOC(=O)c1cnc2c(OC)cccc2c1NCCc1ccc(OC)c(OC)c1 was read as Ba CapD inh 33 and AID504770 -0.65.
Screening CC(=O)N1CCCSC1=Nc1ccccc1 returned AID504770 0.05.
`NC(=O)c1n[nH]c(=O)c2ccccc12` gave AID504770 -0.1.
`CC[n+]1c(/C=C/C=C2\N(C)c3ccccc3C2(C)C)n(-c2ccccc2)c2ccc(Cl)cc21` gave Ba CapD inh -0.68.
`CN1CCN(c2nc(-c3ccc(Cl)cc3)cc(C(F)(F)F)n2)CC1` gave Ba CapD inh 0.73.
Screening N#CC(C#N)=Cc1ccc(-c2cccc(C(=O)O)c2)o1 returned Ba CapD inh -2.1 and AID504770 1.9.
`CCC(=O)Oc1ccc2c(C)cc(=O)oc2c1C(=O)CC` gave Ba CapD inh 4.7 and AID504770 0.2.
Screening CC(C)Nc1ncnc2c1cnn2-c1ccccc1 returned Ba CapD inh -0.88 and AID504770 -1.8.
`CN1C(=O)C2C=CC=CC2N=C1SCc1ccccc1F` (configuration not stated) gave Ba CapD inh -0.08 and AID504770 0.55.
`COc1ccc(CS(=O)c2nc(C)cc(C)c2S(C)(=O)=O)cc1` (configuration not stated) gave Ba CapD inh -0.3.
For COc1cc2cccc(OC)c(=O)c2c(OC)c1OC the results were Ba CapD inh -1.2 and AID504770 -0.1.
For O=C1Nc2ccccc2C1Cc1ccccc1 (configuration not stated) the results were Ba CapD inh -0.61 and AID504770 1.1.
CC1=C(C(=O)Nc2ccc(F)cc2)C(c2ccc(F)cc2)C2=C(CC(c3ccccc3)CC2=O)N1 (configuration not stated) was read as Ba CapD inh -0.83 and AID504770 0.45.
`O=C(O)c1cccc(NC(=O)c2ccco2)c1` gave Ba CapD inh 0.46 and AID504770 -0.6.
`CC1=C(O)C(=O)OC1c1c(Cl)cccc1Cl` (configuration not stated) gave Ba CapD inh 0.58 and AID504770 0.
`CCOC(=O)c1sc2nc(SCC(=O)C(C)(C)C)n(N)c(=O)c2c1C` gave Ba CapD inh 0.7 and AID504770 1.2.
For CCN(c1ccccc1)S(C)(=O)=O the results were AID504770 -0.65.
For CS(=O)(=O)Nc1cc(Br)c(O)c(Br)c1 the results were Ba CapD inh -0.32 and AID504770 -0.6.
For COc1cc(C=C2C(=O)NC(=O)NC2=O)cc(Cl)c1OCCOc1ccc(C)cc1 the results were Ba CapD inh -0.95.
Screening Cc1csc(SC(C)C(=O)Nc2ccccc2C)n1 (configuration not stated) returned AID504770 -0.9.
`CCn1c(SCC(=O)N/N=C/c2ccccc2)nnc1-c1ccccc1` gave Ba CapD inh 0.1 and AID504770 -0.15.
For Cc1ccc(C(CC(=O)N2CCCC2)c2ccccc2)c(O)c1 (configuration not stated) the results were Ba CapD inh -1 and AID504770 1.5.
Screening Cc1ccc(NC(=O)c2c(-c3ccccc3)nnc3ccccc23)cc1F returned Ba CapD inh -0.11 and AID504770 -0.1.
For N#CC1=C(N)Oc2cc(N)ccc2C12C(=O)Nc1ccccc12 (configuration not stated) the results were Ba CapD inh -0.095.
Cn1c(SC/C=C/c2ccccc2)nc2sc3c(c2c1=O)CCCC3 was read as Ba CapD inh 0.81 and AID504770 1.6.
CC(NC(N)=O)C(=O)N1CC=C(c2ccccc2)CC1 (configuration not stated) was read as AID504770 -0.3.
`Cn1c(=O)n(CC(=O)O)c(=O)c2c1nc1n2CCN1c1ccc(Cl)cc1` gave Ba CapD inh 1.3 and AID504770 0.15.
Screening CCN1CCN(C(=O)CCCn2c(=O)[nH]c3cc(Cl)ccc3c2=O)CC1 returned Ba CapD inh -0.44 and AID504770 -0.5.
`Cc1cc(N2C(=O)C3C4C=CC(C4)C3C2=O)ccc1N1C(=O)c2ccc(Cl)cc2C1=O` (configuration not stated) gave Ba CapD inh -0.25.
For FC(F)(F)c1cccc(Cn2c(-c3cscn3)nc3ccccc32)c1 the results were Ba CapD inh 1.3 and AID504770 -0.65.
O=C(O)c1ccccc1N(Cc1ccccc1)C(=O)c1ccco1 was read as Ba CapD inh 0.44 and AID504770 0.
`CC(C)CN1C(=O)c2ccccc2C(C(=O)NCc2cccs2)C1c1cccs1` (configuration not stated) gave Ba CapD inh -0.04 and AID504770 -0.2.

This is a subset; rates above refer to the full screens.
